High-throughput results (PubChem)
TRPML1 ag – activates the human TRPML1 channel. Q9GZU1. TRPML1-expressing cells, Ca2+ dye fluorescence, FDSS; host cell line not named in the record; reference of the full effect not given here. activation, % (test concentration not listed). 410,000 compounds, 0.12% hits. AID 624414; in the data active = activation above about 50%; inconclusive = about 30% to 50%; inactive = below about 30%; further: 0% is about no effect; the text of the record puts the active cut at 80%
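Tet-induced TRPML1-DL cells, 1,500 per well, cultured overnight, were loaded with a no-wash Ca2+ dye for 45–90 min. Calcium fluorescence was recorded on the FDSS for 110 s after compound addition, before the EC80 agonist (4 uM 54-4) was added.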
TRPV1 PAM – human TRPV1 potentiation. Q8NER1. 320,000 compounds, 0.02% hits. TRPV1-expressing cells, Fluo-8 calcium influx, capsaicin EC20 potentiation; host cell line not named in the record; control for the full effect not named in the record. potentiation, % at 8.33 µM; active means potentiation above 80%; inconclusive means 30% to 80%; inactive means below 30%; further: 0% is about no effect
Target sequence (Q8NER1 whole entry, looked up): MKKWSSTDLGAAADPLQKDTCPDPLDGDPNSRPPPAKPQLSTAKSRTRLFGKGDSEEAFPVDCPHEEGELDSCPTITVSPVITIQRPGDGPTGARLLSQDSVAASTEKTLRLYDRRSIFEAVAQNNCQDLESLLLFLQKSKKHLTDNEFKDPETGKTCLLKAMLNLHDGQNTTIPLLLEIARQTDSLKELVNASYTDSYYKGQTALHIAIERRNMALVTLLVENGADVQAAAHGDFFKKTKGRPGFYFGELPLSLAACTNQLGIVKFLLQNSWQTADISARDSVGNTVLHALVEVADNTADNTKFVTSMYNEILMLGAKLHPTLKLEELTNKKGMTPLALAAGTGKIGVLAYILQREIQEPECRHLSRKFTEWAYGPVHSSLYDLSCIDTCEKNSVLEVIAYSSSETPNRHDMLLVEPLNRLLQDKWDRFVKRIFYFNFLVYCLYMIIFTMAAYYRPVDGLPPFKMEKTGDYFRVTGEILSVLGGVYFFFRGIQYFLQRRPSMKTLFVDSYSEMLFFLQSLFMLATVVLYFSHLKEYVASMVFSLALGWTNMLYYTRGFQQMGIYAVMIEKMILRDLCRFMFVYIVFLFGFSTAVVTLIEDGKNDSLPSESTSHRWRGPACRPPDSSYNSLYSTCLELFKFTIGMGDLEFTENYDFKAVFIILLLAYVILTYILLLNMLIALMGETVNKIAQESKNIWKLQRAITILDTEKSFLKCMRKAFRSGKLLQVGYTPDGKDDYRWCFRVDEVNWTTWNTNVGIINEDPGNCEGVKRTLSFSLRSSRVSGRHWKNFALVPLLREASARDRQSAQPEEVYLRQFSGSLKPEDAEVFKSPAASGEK
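Cells expressing TRPV1 were dye-loaded with Fluo-8 and read kinetically: 10 s baseline, 3 min after compound (agonist portion), then 2 min after EC20 capsaicin (allosteric enhancer portion). Calcium-bound dye fluorescence at 480/520 nm.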
PINK1 expr mod – modulators of PINK1 expression; PINK1 immunofluorescence, high-content cytometry, 24 h; Potency, µM (doses to about 76.6 µM), without a hit: at the top dose activation (PINK1 increase), most hits filed as activators; 410,000 compounds, 0.2% hits; AID 624263; active = well fitted activation curve with a large enough effect; inconclusive = small, poorly fitted or top-dose-only effect; inactive = flat fitted curve, though single readings scatter; cell line not stated here;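 further: potency means the concentration at half of the fitted maximal effect; % of control where 0% means no effect; nearly all actives have a fitted effect of over 65% in size; a mitochondrial uncoupler was the plate control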
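A stable cell line was treated with compounds at 5 concentrations for 24 hours, with CCCP as control. PINK1 levels and mitochondrial localization were measured by immunofluorescence with mitochondrial, cell and nuclear markers after fixation, read by laser-scanning cytometry.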
TRPML1 inh – human mucolipin-1 channel inhibition; AID 624415; 390,000 compounds, 0.02% hits; TRPML1-inducible cells, Ca2+ dye fluorescence, FDSS; active compounds read low; inhibition of EC80 agonist-evoked calcium signal; activity change, negative = inhibition, % (test concentration not listed); Q9GZU1; in the data active means activity change below about -50%; inconclusive means about -30% to -50%; inactive means above about -30%;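 further: stimulus is agonist 54-4 at its EC80 concentration; on the % scale 0 is the no-effect control and ±100 the full control effect; compound concentration not given in the record; the text of the record puts the active cut at -80%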
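TRPML1-DL cells, Tet-induced overnight (~16 h, 37 °C) at 1,500 cells/well, were loaded with Ca8 no-wash dye plus quencher for 45-90 min at room temperature. Compounds were pinned during FDSS kinetic reading; agonist 54-4 at EC80 (4 uM final) then added.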
Menin MLL FP FL – displaces fluorescein MLL peptide from human menin; FP activity change, % at 61.4 µM; Fluorescence polarization, fluorescein-MLL peptide displacement from menin; AID 1766; 290,000 tested, under 10 active; inconclusive = falling polarisation curve, or a change in total fluorescence; inactive = total fluorescence flat and polarisation flat or rising; no compound was filed as active; the % refers to the polarisation; negative = inhibition;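 further: % of control where 0% means no effect; inhibitors lower the polarisation; unlabelled MLL peptide was the positive control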
ClpP mod – qHTS Assay for Activators of ClpP | 340,000 compounds, 1.9% hits | Potency, µM (titrated, usually from 57.5 µM), inactives show top-dose activity change, negative = active | purified B. subtilis ClpP, FRET peptide cleavage, 20 min; active = well fitted falling curve with a large enough effect; inconclusive = small, poorly fitted or top-dose-only effect; inactive = no such curve, though single readings can be large or run the other way; further: potency means the concentration at half of the fitted maximal effect; the source files actives as falling curves though it sought activators and does not explain the sign; nearly all actives have a fitted effect of over 65% in size; many hits overshoot -100%
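Purified B. subtilis ClpP, 10 microg/mL final in Tris/HCl pH8 with KCl, BSA, glycerol and Tween-20, cleaved an Abz/nitrotyrosine-quenched decapeptide. Fluorescence (ex 320, em 430) was read at 0 and 20 min at room temperature. Delta was normalized to 5.8 microM ADEP and DMSO/no-enzyme controls.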
Sfp inh – inhibitors of Bacillus subtilis Sfp phosphopantetheinyl transferase | Q9F4F7 | Biochemical Sfp PPTase activity, qHTS | Potency, µM, without a hit: max response, negative = inhibition, actives largely listed as inhibitors | 310,000 compounds, 3.5% hits; active means well fitted inhibition curve with a large enough effect; inconclusive means small, poorly fitted or top-dose-only effect, or another doubt; inactive means no such curve, though single readings can be large or run the other way;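 further: the enzyme is Sfp with the accession as filed and its product quenches rhodamine fluorescence; potency means the concentration at half of the fitted maximal effect; 0% = enzyme reaction without inhibitor and -100% = no enzyme wells; top concentration of the series not given in the record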
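Sfp 15 nM + cpd, 15 min RT; start w/ rhodamine-CoA 5 uM, BHQ-2-YbbR 12.5 uM (final); 50 mM Hepes pH 7.6, 10 mM MgCl2, 0.01% NP-40, 0.01% BSA; read 525/598 nm at 0 and 30 min.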
The depositor's hits bear a star; ? = inconclusive; / = no result given; & = joins results of further samples; [ ] = remark or other dose.

#1 COc1ccc2cc(/C=N/NC(=O)c3ccc(CN(c4cccc(Cl)c4Cl)S(C)(=O)=O)cc3)c(Cl)nc2c1
#2 O=S(=O)(c1ccccc1)N(Cc1cccc(F)c1)c1ccccc1
#3 COc1ccc(C(=O)N2CCCC(Nc3ccc(C(C)C)cc3)C2)c(OC)n1 (configuration not stated)
#4 Cc1noc(C)c1COC(=O)Cc1ccc(Cl)c(Cl)c1
#5 CCN(C(=O)CCc1nc(-c2ccc(C)cc2)no1)c1cc(C)ccc1C
#6 Cc1c(C(N)=O)sc2ncn(CC(=O)N(C)C3CCCCC3)c(=O)c12
#7 O=C(CC(c1ccccc1)c1ccco1)N1CCCCC1 (configuration not stated)
#8 COc1cc(Cl)c(C)cc1Nc1ncccn1
Screen / compound no.	1	2	3	4	5	6	7	8
ClpP mod	17.8µM*	1.6%	2.5%	3.1%	-0.8%	/	/	-3.0%
TRPV1 PAM	7.1	-16.3	19.1	-14.5	/	-4.7	-14.8	1.3
Menin MLL FP FL	-0.8	-3.3	/	-1.9	/	5.4	5.2	-2.4
TRPML1 inh	7.8	84.2	17.0	0.6	-12.6	-5.6	/	-3.9
PINK1 expr mod	0.7%	0.2%	0.1%	1.2%	-0.3%	1.8%	/	7.0%
Sfp inh	2.8%	13.8%	2.2%	-4.1%	/	18.2%	0.3%	-3.4%
TRPML1 ag	0.6	2.2	0.8	3.0	1.4	0.7	/	-0.7

In the list so far, these have a Cl atom.
#1 COc1ccc2cc(/C=N/NC(=O)c3ccc(CN(c4cccc(Cl)c4Cl)S(C)(=O)=O)cc3)c(Cl)nc2c1
#4 Cc1noc(C)c1COC(=O)Cc1ccc(Cl)c(Cl)c1
#8 COc1cc(Cl)c(C)cc1Nc1ncccn1
Screen / compound no.	1	4	8
ClpP mod	17.8µM*	3.1%	-3.0%
TRPV1 PAM	7.1	-14.5	1.3
Menin MLL FP FL	-0.8	-1.9	-2.4
TRPML1 inh	7.8	0.6	-3.9
PINK1 expr mod	0.7%	1.2%	7.0%
Sfp inh	2.8%	-4.1%	-3.4%
TRPML1 ag	0.6	3.0	-0.7

Continued.
#9 C/C(=N\O)c1ccc2[nH]ccc2c1
#10 OCC1OC(n2cnc3ccccc32)CC1O (configuration not stated)
#11 N#C/C(=C/c1ccc(-c2ccc(S(=O)(=O)N3CCOCC3)cc2)o1)C(=O)NC1CC1
#12 OC[C@H]1O[C@@H](n2cnc3c(NC4CCCC4)ncnc32)[C@H](O)[C@@H]1O
#13 O=S(=O)(c1ccc(N2CCC(c3ccc(Cl)cc3)=N2)cc1)N(CCO)CCO
#14 CCOC(=O)[C@@H]1[C@H]2COc3cc(OC)ccc3[C@@H]2N2C(=O)N(c3ccc(Br)cc3)C(=O)[C@]12C
#15 Cc1cc(NCCN(C)C)n2nc(-c3cccs3)cc2n1
#16 CCn1c(CSCc2ccc(C)cc2)n[nH]c1=S
Screen / compound no.	9	10	11	12	13	14	15	16
ClpP mod	-1.7%	-16.5%	/	1.7%	?	-0.2%	28.2µM*	1.3%
TRPV1 PAM	/	-14.2	/	-5.8	-3.5	/	/	-3.6
Menin MLL FP FL	-1.8	3.9	/	-2.4	-0.5	/	5.9	2.8
TRPML1 inh	-3.5	-3.0	-2.3	-11.5	36.8	-12.3	1.4	-7.0
PINK1 expr mod	1.2%	2.4%	1.1%	1.4%	0.3%	0.7%	-1.7%[38.3 µM]	-1.7%
Sfp inh	18.5%	16.1%	/	-26.2%&12.7%	?	/	5.4%	-7.7%
TRPML1 ag	1.3	0.1	-0.5	0.2	0.9	0.1	5.3	0.3

Ordered by heavy-atom count (ascending): part of the list above.
#16 CCn1c(CSCc2ccc(C)cc2)n[nH]c1=S
#15 Cc1cc(NCCN(C)C)n2nc(-c3cccs3)cc2n1
#14 CCOC(=O)[C@@H]1[C@H]2COc3cc(OC)ccc3[C@@H]2N2C(=O)N(c3ccc(Br)cc3)C(=O)[C@]12C
Screen / compound no.	16	15	14
ClpP mod	1.3%	28.2µM*	-0.2%
TRPV1 PAM	-3.6	/	/
Menin MLL FP FL	2.8	5.9	/
TRPML1 inh	-7.0	1.4	-12.3
PINK1 expr mod	-1.7%	-1.7%[38.3 µM]	0.7%
Sfp inh	-7.7%	5.4%	/
TRPML1 ag	0.3	5.3	0.1

(further entries)
#17 COCCCNC(=O)c1ccc(Cn2c(SCc3ccc(F)cc3)nc3cccnc32)cc1
#18 O=C1OCC2=C1C(c1ccccc1)CC(=O)N2c1ccc(F)cc1 (configuration not stated)
#19 COc1ccc(S(=O)(=O)N2CCC(c3nc4ccccc4[nH]3)CC2)cc1
#20 CCCC[C@@H]1CC2=C(C(=O)OC(C)(C)O2)[C@@H](c2ccc(Cl)cc2)O1
#21 O=S(=O)(c1ccc(F)cc1)N1CCCc2ccccc21
#22 COc1ccc(OC)c(Nc2nc(N)c([N+](=O)[O-])c(N3CCOCC3)n2)c1
#23 Cc1ccc(S(=O)(=O)O)c(C)c1N1CCCC1=O
#24 Cc1cc(NC(=O)COC(=O)C2CCC2)no1
Screen / compound no.	17	18	19	20	21	22	23	24
ClpP mod	5.0%	-1.5%	/	2.3%	/	-1.9%	-0.1%	/
TRPV1 PAM	/	-2.2	0.9	/	24.6	?	-2.2	-1.5
Menin MLL FP FL	/	-2.9	2.3	/	-0.1	-1.6	-2.0	0.8
TRPML1 inh	-26.1	14.4	-2.0	/	/	8.1	-8.8	-10.4
PINK1 expr mod	0.2%	3.4%	17.8%	11.3%	/	-0.5%	-2.9%	-0.8%
Sfp inh	/	14.7%	-1.1%	/	14.6%	-2.2%	2.2%	11.9%
TRPML1 ag	1.8	-0.3	1.3	-0.3	/	0.5	-1.2	-0.5

#25 CCc1ccccc1N1CSC2=C(C#N)C(c3ccccc3F)CC(=O)N2C1 (configuration not stated)
#26 O=C1CSC(c2cccc([N+](=O)[O-])c2)N1CCN1CCCCC1 (configuration not stated)
#27 CCCC(=O)N1CCc2cc(OC)c(OC)cc2C1c1cc2cc3c(cc2[nH]c1=O)OCO3 (configuration not stated)
#28 O=C(O)c1cccc(Sc2cc(Cl)ccc2C(=O)O)c1
#29 CC(=O)c1c(C)[nH]c(C(=O)CN2CCN(S(=O)(=O)c3ccccc3[N+](=O)[O-])CC2)c1C
#30 Cc1ccc(Cn2c(SCc3cccnc3)nc3c2c(=O)n(C)c(=O)n3C)cc1
#31 Cc1cc(Oc2ccc(Cl)cc2)nc(-c2ccccn2)n1
#32 O=C(CSc1n[nH]c(-c2ccncc2)n1)Nc1ccc(Cl)c(Cl)c1
Screen / compound no.	25	26	27	28	29	30	31	32
ClpP mod	3.1%	-0.6%	?	-4.0%	0.9%	-1.0%	/	/
TRPV1 PAM	/	-7.8	/	2.6	2.1	16.8	?	4.8
Menin MLL FP FL	?	-4.9	/	/	/	0.0	3.1	-2.9
TRPML1 inh	-9.8	-9.6	-10.2	2.0	43.2	1.4	12.7	-5.4
PINK1 expr mod	2.5%	-1.0%	1.0%[38.3 µM]	0.2%	-0.1%	-0.1%[38.3 µM]	0.3%	1.3%
Sfp inh	1.12µM*	10.3%	/	/	/	-9.6%	13.1%	-8.4%
TRPML1 ag	0.1	0.2	0.1	-0.5	-0.6	1.0	1.0	0.3
